High-throughput results (PubChem BioAssay)
miR-21 reporter: miR-21 reporter, rising signal | AID 2288 | 340,000 tested, under 10 active | HeLa miR-21 FLuc reporter, luciferase, 48 h | Potency, µM (series often up to 38.3 µM), without a hit: at the top dose reporter change, positive = more light; active = well fitted rising curve with a large enough effect; inconclusive = small, poorly fitted or top-dose-only effect; inactive = no such curve, though single readings can be large or run the other way;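 further: % of control where 0% means no effect; miR-21 action dims this reporter so a rising signal means less miR-21 action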
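Using DMEM plus 10% FBS, HeLa miR-21-FLuc cells are incubated with test compounds (final up to about 40uM) for 48 hours; firefly luciferase signal is then imaged following reagent-mediated lysis.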
Numbers without * were called inactive; u = inconclusive. These rows are one share of the data. The share of hits here may be higher or lower than overall.

miR-21 reporter | molecule
1.0% | O=C(CC1N=C2c3ccccc3N=C(SCc3ccc(F)cc3)N2C1=O)NCc1cccs1 (stereo not drawn)
24.2% | CCOC(=O)c1cc(-c2ccccc2)n(CCC(=O)Nc2nc3c(C)cccc3s2)c1C
u | Cc1ccc(NC(=O)CSc2nc3ccccc3c3nc(CCn4cncc4C)nn23)cc1F
-1.3% | Cc1c(C(=O)N(C)C)sc2c1c(=O)n(-c1ccc(Cl)cc1)c(=O)n2Cc1ccccc1F
0.0% | O=C(Nc1cccc(-c2nc3cc(Cl)ccc3o2)c1)c1ccc(F)cc1
-5.6% | COC(=O)CCNC(=O)NC(CCC(C)C)c1c(-n2cccc2)sc2c1CCN(C)C2 (stereo not drawn)
-25.0% | CC(=O)c1ccc(NC(=O)CSc2ccc(-c3cccs3)nn2)cc1
0.6% | CCOc1ccc(OC(=O)c2cn(-c3cccc(OC)c3)c(=O)c3ccccc23)cc1
-1.4% | Cc1nnc(N2CCC(C(=O)NC(C)C)CC2)c2nn(-c3ccccc3)c(C)c12
-0.5% | CCOCCCNC(=O)c1c(NC(=O)c2cc(=O)c3cc(C)c(C)cc3o2)sc2c1CCC2
-7.6% | CCc1ccccc1NC(=O)C1(S(=O)(=O)c2ccc(Cl)cc2)CC1
-3.2% | Cc1ccc2onc(CNC(=O)N3CCN(c4cccc(C(F)(F)F)c4)CC3)c2c1
0.7% | Cc1ccc(NC(=O)c2oc3ccc(S(=O)(=O)N4CCCCCC4)cc3c2C)cc1Cl
-30.1% | COc1ccc(Nc2ncnc3sc4c(c23)CCCC4)cc1
-1.8% | O=C(Cc1c(C(=O)O)[nH]c2ccccc12)Nc1cccc(C(F)(F)F)c1
2.2% | Cc1ccc(C)c(Cn2cc(S(=O)(=O)c3ccc(Cl)cc3)c(=O)c3cc(F)ccc32)c1
u | COc1ccccc1CNS(=O)(=O)c1ccc2[nH]c3c(c2c1)CCCCC3
-17.9% | O=C(c1ccco1)N1CCN(c2nc3c(F)cc(F)cc3s2)CC1
-19.6% | N#Cc1nc(/C=C/c2ccc(F)cc2)oc1NCc1ccc(F)cc1
2.7% | COC(=O)c1sc2ncccc2c1-n1c(C)ccc1C

Next section; the last 4 above are carried over.
miR-21 reporter | molecule
u | COc1ccccc1CNS(=O)(=O)c1ccc2[nH]c3c(c2c1)CCCCC3
-17.9% | O=C(c1ccco1)N1CCN(c2nc3c(F)cc(F)cc3s2)CC1
-19.6% | N#Cc1nc(/C=C/c2ccc(F)cc2)oc1NCc1ccc(F)cc1
2.7% | COC(=O)c1sc2ncccc2c1-n1c(C)ccc1C
-30.8% | CC(C)Oc1ccc(C(=O)N(Cc2ccco2)c2ccccn2)cc1
-16.2% | O=C(Cn1c(=O)c2ccccc2n(CC(=O)Nc2ccc(Cl)cc2)c1=O)NCCc1ccccc1
7.4% | Cc1ccc(CCNC(=O)CN2CCN(Cc3ccc(Cl)cc3)C2=O)cc1
-2.0% | CCc1ccccc1NC(=O)CN(c1cc(C(F)(F)F)ccc1Cl)S(=O)(=O)c1ccccc1
-4.4% | O=C(Nc1c(C(=O)c2ccccc2)oc2ccccc12)c1ccc(F)cc1
5.5% | O=C(c1cnn(-c2ccc(F)cc2)c1-n1cccc1)N1CCN(c2ccc(F)cc2)CC1
9.6% | COc1ccc(C2=C(Nc3ccc(C)cc3C)c3ccccc3C2=O)cc1
2.2% | COc1ccc(NC(=O)C2=C(C)Nc3nc(SCc4ccc(C)cc4C)nn3C2c2cccc(OC)c2OC)cc1 (stereo not drawn)
-6.5% | CCOc1ccc(NC(=O)CN(c2ccc(C)cc2)S(=O)(=O)c2cccs2)cc1
0.6% | CC(C)Sc1ncc(Cl)c(C(=O)N(Cc2ccc(N(C)C)cc2)C2CCS(=O)(=O)C2)n1 (stereo not drawn)
-2.1% | Cc1ccc(-c2nnc(SCC(=O)N3CCCc4ccccc43)o2)cc1
16.7% | COC(=O)c1cnc(N2CCN(c3ccccc3OC)CC2)c2ccccc12
2.2% | COc1cccc(CNC(=O)Cn2c(=O)ccc3cc(S(=O)(=O)N4CCCC4)ccc32)c1
19.9% | COc1ccc(Nc2cc(C(=O)NCCCN(C)Cc3ccccc3)c3ccccc3n2)c(OC)c1
-14.1% | Cc1ccc2c(=O)cc(C(=O)N(Cc3ccccc3Cl)C3CCS(=O)(=O)C3)oc2c1 (stereo not drawn)
13.2% | CCCCOc1ccc(CNC(=O)c2ccc(NC(=O)N3CCSc4ncccc43)cc2)cc1
5.1% | CN1CCN(C(CNC(=O)C(=O)Nc2ccccc2C#N)c2ccc3c(c2)OCO3)CC1 (stereo not drawn)
-0.1% | CCOc1ccccc1CNC(=O)CCCN1C(=O)CCn2nc(-c3cccn3C)cc21
u | O=C(CSc1nc(-c2ccc(F)cc2)[nH]c1-c1ccc(F)cc1)Nc1ccc2c(c1)OCO2
20.8% | CCOc1cc(CNC(=O)c2sc3ncnc(N(C)C4CCCCC4)c3c2C)ccc1OC

Sorted by number of heavy atoms (ascending): part of the list above.
miR-21 reporter | molecule
5.1% | CN1CCN(C(CNC(=O)C(=O)Nc2ccccc2C#N)c2ccc3c(c2)OCO3)CC1 (stereo not drawn)
20.8% | CCOc1cc(CNC(=O)c2sc3ncnc(N(C)C4CCCCC4)c3c2C)ccc1OC
19.9% | COc1ccc(Nc2cc(C(=O)NCCCN(C)Cc3ccccc3)c3ccccc3n2)c(OC)c1

Later entries:
miR-21 reporter | molecule
-7.3% | CC1(C)CC(=O)c2cc(-c3nc(-c4ccc(F)cc4)cs3)c(=O)[nH]c2C1
3.2% | CSc1nc2c([nH]c3ccccc32)c(=O)n1-c1ccc(C)cc1
u | CC1=C(C(=O)Nc2ccc(Cl)cc2)C(c2ccccc2)n2ncc(C(=O)Nc3ccccc3)c2N1 (stereo not drawn)
-2.1% | O=C(CN1C(=O)COc2ccc(S(=O)(=O)N3CCCC3)cc21)N1CCN(c2ccccc2F)CC1
u | Cc1ccc(C)c(Cn2c(C3CC(=O)N(c4ccccc4C)C3)nc3ccccc32)c1 (stereo not drawn)
-11.6% | CCN1CCOC(=O)C1CC(=O)Nc1cc(Cl)ccc1C (stereo not drawn)
-1.8% | Cc1ccn2c(=O)cc(COc3cccc(NC(=O)Nc4cccc(Cl)c4C)c3)nc2c1
-0.9% | CCOc1ccc(C(=O)c2oc3ccccc3c2NC(=O)c2cc(-c3ccc(C)cc3)on2)cc1
21.9% | COc1cc(-c2nnc(SCC(=O)N(C)C3CCCCC3)o2)cc(OC)c1OC
15.9% | O=C(c1cnc(N2CCCCC2)c2ccccc12)N1CCN(c2ccc(Cl)cc2)CC1
13.9% | CCOc1ccc(C(=O)NCCc2csc(-c3cccnc3)n2)cc1
-20.7% | COc1ccc2c(Sc3ccc(C)cc3)c(C(=O)NCC(C)c3ccccc3)[nH]c2c1 (stereo not drawn)
-21.2% | COc1ccc2c(Sc3ccccc3)c(C(=O)N3CCC(C)CC3)[nH]c2c1
2.9% | Cc1nnc(N2CCC(C(=O)NC3CCCCC3)CC2)c2nn(-c3ccccc3)c(C)c12
-16.2% | COc1ccc(-c2n[nH]c3c2cnc2cc(OC)c(OC)cc23)cc1
-1.3% | Cc1ccc2oc(=O)c3cnn(CC(=O)N4CCN(c5ccccc5F)CC4)c3c2c1
-32.4% | COc1ccc(NC(=O)c2ccc3snnc3c2)cc1OC
-29.7% | O=C(Nc1ccc(Cl)cc1)c1ccc2c(c1)N(Cc1ccccc1)CCS2
-0.9% | O=C(CSc1nc2c([nH]c3ccccc32)c(=O)n1-c1cccc(Cl)c1)N1CCCC1
-30.2% | COc1cccc(NC(=O)CN(C)S(=O)(=O)c2cccs2)c1
-6.7% | Cc1ccc(S(=O)(=O)c2nnn3c2nc(NCc2cccs2)c2sccc23)cc1
26.8% | COc1c(Cl)cc(C(=O)Nc2cc(-c3nc4ccccc4[nH]3)ccc2C)cc1Cl
-6.6% | COCCNC(=O)C1=CC(c2ccc3c(c2)OCO3)=NS(=O)(=O)N1C
u | COc1ccc(C2CC(=O)N(Cc3cccc(F)c3)c3ccccc3S2)cc1 (stereo not drawn)
-3.5% | CCc1ccc(NC(=O)c2sc(-n3nc(C)c(Cc4ccc5c(c4)OCO5)c3C)nc2C)cc1
-1.8% | CCCNC(=O)Cn1c(=O)n(CC2CCC(C(=O)NC)CC2)c(=O)c2sccc21 (stereo not drawn)
u | Cc1cccc(NC(=O)C2CCCN2S(=O)(=O)c2ccc3nc(-c4ccccc4)[nH]c3c2)c1 (stereo not drawn)
-6.8% | CC(C)c1ccc(Nc2cc(C(=O)NCCCN(C)Cc3ccccc3)c3ccccc3n2)cc1
1.4% | CCc1ccccc1-n1c(N)c(C(=O)OC)c2nc3ccccc3nc21
-6.1% | Clc1ccc(-c2noc3ncnc(NCCc4ccccc4)c23)cc1
22.1% | CN1CCN(c2oc(-c3ccc(COc4ccc(Cl)cc4)o3)nc2C#N)CC1
-10.6% | O=C(CSCc1cnn(-c2ccccc2)c1-n1cccc1)NCc1ccccc1F
-6.5% | COc1ccccc1CC(=O)Nc1ccc2nc(Nc3cccc(Cl)c3)cc(C)c2c1
-0.1% | Cc1ccc(-n2c(SCC(=O)Nc3ccc4c(c3)OCCO4)nc3c([nH]c4ccccc43)c2=O)cc1
19.8% | CC(C)COc1ccc(C(=O)Nc2cccc(-c3nc4ccccc4[nH]3)c2)cc1
2.7% | COc1ccccc1N1CCN(C(=O)Cn2c(=O)nc(-c3ccccc3)c3ccccc32)CC1
2.3% | COc1nnc(-c2ccc(N3CCCCC3)c(NC(=O)c3ccc(Cl)cc3)c2)c2ccccc12
-5.5% | CCOC(=O)c1cnc2c(C)c(Cl)ccc2c1Nc1ccc(N2CCOCC2)cc1
-3.8% | COc1cc(OC)c(OC)cc1/C=C/c1nc2cc3ccccc3cc2c(=O)n1-c1ccccc1Br
6.5% | Cc1cc(C)c(S(=O)(=O)NCC(c2ccco2)S(=O)(=O)c2cccs2)c(C)c1 (stereo not drawn)
-2.8% | Cc1ccccc1Cn1c(=O)n(Cc2ccco2)c(=O)c2sc3ccccc3c21
-17.0% | CCC(=O)NCCc1nc2cc(NC(=O)c3cccc(Br)c3)ccc2n1C
-1.2% | COc1ccc2c(c1)cc1c(=O)n(CC(=O)NC(C)C)nc(C)n12
6.8% | CCc1ccc(NC(=O)CCn2c(-c3ccc(OC)cc3)cc(C(C)=O)c2C)cc1
-56.2% | COc1cccc(-c2cc(C(=O)NCc3ccccc3)[nH]n2)c1
0.8% | O=C(Cn1c(=O)c2ccccc2n(CC(=O)Nc2ccc(F)cc2F)c1=O)NCCc1ccccc1
0.3% | COc1ccc(NC(=O)C2CCCN(S(=O)(=O)c3ccc4c(c3)CCCC(=O)N4)C2)cc1OC (stereo not drawn)
-37.5% | Cc1ccc(C(=O)Nc2ccccc2F)cc1S(=O)(=O)N1CCOCC1
3.3% | Cc1ccc(S(=O)(=O)c2c(Nc3ccc(C)c(C)c3)sc(C(=O)c3ccc4c(c3)OCO4)c2N)cc1
0.2% | Cc1ccc(CN2CCSc3ccc(C(=O)N4CCN(c5cc(C)ccc5C)CC4)cc32)cc1

Later entries.
miR-21 reporter | molecule
-8.6% | CCOc1ccccc1-c1noc(CSc2nnc(-c3ccccc3)n2-c2cccc(C)c2)n1
-1.0% | CCc1cccc(NC(=O)c2ccc3c(c2)N(Cc2cccc(Cl)c2)C(=O)c2ccccc2S3=O)c1 (stereo not drawn)
-0.7% | COc1ccc(CCNc2nc(SCc3cccc(F)c3)nc3ccccc23)cc1OC
-10.3% | Cc1cc(C)c2oc(-c3cc(NC(=O)Cc4ccccc4)ccc3Cl)nc2c1
-0.6% | COc1ccc(-c2c(C)nn3c(-c4ccccc4)cc(-c4ccccc4)nc23)cc1OC
-1.7% | Cc1ccccc1-c1nc(SCC(=O)NCC2CCCO2)c2c(=O)n(C)c(=O)n(C)c2n1 (stereo not drawn)
0.0% | CCc1ccc(OC(C)C(=O)Nc2c(C(=O)c3ccccc3)oc3ccccc23)cc1 (stereo not drawn)
17.4% | Cc1cccc(N(CC(=O)NCCSc2ccc(Cl)cc2)S(C)(=O)=O)c1C
-14.5% | COc1ccc(C2c3cc(OC)c(OC)cc3CC(=O)N2c2cccc(C#N)c2)cc1 (stereo not drawn)
-4.6% | Cc1ccc(NC(=O)CN2C(=O)COc3ccc(S(=O)(=O)N4CCCCCC4)cc32)c(C)c1

As entered above.
Entry of Cc1cc(C)c2oc(-c3cc(NC(=O)Cc4ccccc4)ccc3Cl)nc2c1 under miR-21 reporter: -10.3%
Entry of Cc1cccc(N(CC(=O)NCCSc2ccc(Cl)cc2)S(C)(=O)=O)c1C under miR-21 reporter: 17.4%

Following part
miR-21 reporter | molecule
-7.9% | CCN(CC)C(=O)Cn1ncc2c([nH]c3ccccc32)c1=O
-2.2% | O=C(C1CCN(S(=O)(=O)Cc2ccccc2)CC1)N1CCN(c2cccc(C(F)(F)F)c2)CC1
3.6% | CCN(CCCNC(=O)c1cc(Nc2ccc(OC)cc2)nc2ccccc12)c1cccc(C)c1
u | COc1cc(OC)cc(C(=O)Nc2ccc3c(c2)N(C2CCCC2)C(=O)c2ccccc2S3)c1
-5.4% | O=C(CN1C(=O)CC(c2ccco2)Sc2ccccc21)Nc1cccc(C(F)(F)F)c1 (stereo not drawn)
-0.2% | CCOC(=O)c1[nH]c(C)c(CCC(=O)Nc2ccc(C(C)=O)cc2)c1C
24.5% | COc1ccc(OC)c(NC(=O)c2cn(CC(C)C)c(=O)c3cc(OC)c(OC)cc23)c1
-1.3% | CCOC(=O)c1c(C)[nH]c(C)c1S(=O)(=O)NCC(=O)Nc1ccc(C)cc1C
-5.5% | Cc1nc2ccc(S(=O)(=O)N(C)CC(=O)Nc3ccc(C(C)C)cc3)cc2s1
